Arbovirus anti: antivirals against arbovirus infection; arbovirus infection cell-based antiviral screen; inhibition, % at 10 µM; 0.37% of 200,000 active; AID 1251;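 active means inhibition from about 30%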;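 further: bluetongue infection of BSR cells; cell survival read as ATP light after 72 h; 0% = infected wells without compound and 100% = uninfected wells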
RecA intein inh: blocks M. tuberculosis RecA intein splicing; cell-free RecA intein splicing, fluorescence; inhibition, %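 (about 9 µM by stock and volumes)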; 0.75% of 290,000 active; in the data active means inhibition above about 30%;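 further: 0% = vehicle wells and 100% = reference inhibitor control wells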
Target sequence (P9WHJ3 whole entry, looked up): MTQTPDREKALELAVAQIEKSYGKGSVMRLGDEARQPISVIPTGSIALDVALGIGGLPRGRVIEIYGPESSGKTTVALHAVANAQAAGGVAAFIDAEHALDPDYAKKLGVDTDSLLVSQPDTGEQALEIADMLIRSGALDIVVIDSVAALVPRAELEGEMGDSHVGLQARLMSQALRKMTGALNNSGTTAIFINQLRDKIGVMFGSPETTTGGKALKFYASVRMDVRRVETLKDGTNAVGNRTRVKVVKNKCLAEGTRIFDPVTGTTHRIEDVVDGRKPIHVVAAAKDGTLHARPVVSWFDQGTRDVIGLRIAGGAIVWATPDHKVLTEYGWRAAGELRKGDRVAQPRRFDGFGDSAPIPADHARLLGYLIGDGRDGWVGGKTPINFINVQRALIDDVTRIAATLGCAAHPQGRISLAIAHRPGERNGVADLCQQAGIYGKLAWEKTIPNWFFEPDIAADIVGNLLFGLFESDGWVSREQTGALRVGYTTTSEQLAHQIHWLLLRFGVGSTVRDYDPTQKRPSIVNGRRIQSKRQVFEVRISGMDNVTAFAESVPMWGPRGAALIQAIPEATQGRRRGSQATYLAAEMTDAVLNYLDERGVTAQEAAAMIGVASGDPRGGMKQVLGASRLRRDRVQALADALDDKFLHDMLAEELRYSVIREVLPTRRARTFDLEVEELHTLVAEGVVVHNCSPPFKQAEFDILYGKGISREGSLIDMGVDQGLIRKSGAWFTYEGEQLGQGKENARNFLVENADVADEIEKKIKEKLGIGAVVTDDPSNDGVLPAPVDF
Mtb bLac sens: beta-lactam sensitization of Mtb H37Rv | M. tuberculosis H37Rv growth with meropenem, percent inhibition; hits of this screen are not shown here | inhibition, % at 25 µM | 0.27% of 330,000 active;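 active means about 74% or more and at least 40 points above the plate without the antibiotic, then above 30% in a dose series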;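 further: growth measured after seven days incubation then overnight dye step; 0% = bacteria only wells and 100% = bacteria with antibiotic; twin plates without the antibiotic show which effects depend on it; some results filed as inactive read as strong as hits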
Mtb H37Rv: M. tuberculosis H37Rv growth inhibitors, H37Rv strain (AID 1626); inhibition, % at 10 µM, or IC50 in µM where a hit was titrated; M. tuberculosis H37Rv growth inhibition; higher % means a stronger effect; 0.95% of 220,000 active;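 active means confirmed in a dose series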;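 further: bacteria incubated seven days before Alamar blue readout; 0% = bacteria only wells and 100% = bacteria with antibiotic wells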
YopH PTP inh: YopH (Yersinia) phosphatase inhibition | inhibition, %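 (about 10 µM by stock and volumes)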 | fluorescence Ex485/Em525 | 0.16% of 140,000 active;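 active means inhibition of 50% or more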;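 further: controls were vehicle for no effect and minimum signal wells for full effect; inactives centre near -20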
Arbovirus anti repeat: recorded beside Arbovirus anti, whose call it bears; inhibition, %; measured here: 10K subset replicate screen; many hits read low in the repeat;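 first of two repeat runs on a subset; 0% = infected and 100% = uninfected wells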
* hit, by the source's call. This is a subset; count on the stated rates, not on these rows.

CCC(C)N(C)Cc1cccc(C2(O)CCN(S(=O)(=O)c3ccc(F)c(C)c3)CC2)c1 (stereo not drawn) was read as Arbovirus anti -9, RecA intein inh -0.3, Mtb bLac sens -5, Mtb H37Rv 7% and YopH PTP inh -11.
COc1ccc(NS(=O)(=O)c2cn(C)c(=O)n(C)c2=O)cc1 was read as RecA intein inh 0.4, Mtb bLac sens -8 and Mtb H37Rv -6%.
O=C(NCCNC(=O)c1cc(OCC(F)(F)F)ccc1OCC(F)(F)F)Nc1ccc(Cl)cc1 was read as Arbovirus anti -7, RecA intein inh -3.6, Mtb bLac sens 6, Mtb H37Rv -6% and YopH PTP inh 6.
`COCCNC(=O)c1onc(CS(=O)(=O)c2cc(C)cc(C)c2)c1C(=O)NCCOC` gave RecA intein inh -0.6 and Mtb bLac sens -1.
For O=C(O)c1cc(NCc2c(F)cccc2Cl)ccc1N1CCOCC1 the results were Arbovirus anti 4, RecA intein inh -3.1, Mtb bLac sens -4, Mtb H37Rv 5% and YopH PTP inh -44.
`CC(C)c1ccc(N)c(S(=O)(=O)O)c1` gave RecA intein inh -2.2, Mtb bLac sens -6 and Mtb H37Rv -18%.
Screening Cc1ccc(CCNC(=O)C2CCCN(S(C)(=O)=O)C2)cc1 (stereo not drawn) returned RecA intein inh 0.4 and Mtb bLac sens 1.
`Cc1ccc(N2CC(O)(c3cccs3)[N+]3=C2CCCC3)cc1` (stereo not drawn) gave Arbovirus anti -12, RecA intein inh -1.3, Mtb bLac sens -4 and Mtb H37Rv -8%.
Screening COc1ccc(Cn2c(CCC(=O)Nc3ccccc3OC)nc3cccnc32)cc1 returned Arbovirus anti 4, RecA intein inh -1.1, Mtb bLac sens 3 and Mtb H37Rv 11%.
`COc1ccc(C(=O)NCCSc2ccccn2)cc1` gave Arbovirus anti -1, RecA intein inh -0.8, Mtb bLac sens 29, Mtb H37Rv 0% and YopH PTP inh -35.
Cc1ccc(C(=O)N2CCCCCC2)cc1S(=O)(=O)N1CCOCC1 was read as RecA intein inh 1.1 and Mtb bLac sens -8.
`CCOC(=O)c1oc2ccccc2c1CN1CC(C)OC(C)C1` (stereo not drawn) gave RecA intein inh 2.3 and Mtb bLac sens 9.
`Cc1nc2sc(C(c3ccco3)N3CCC(C)CC3)c(O)n2n1` (stereo not drawn) gave Arbovirus anti 1, RecA intein inh 1.2, Mtb bLac sens -9, Mtb H37Rv -3%, YopH PTP inh -29 and Arbovirus anti repeat 0.
O=C(NC1CCCCC1)c1cc(-c2ccco2)on1 was read as Arbovirus anti 5, RecA intein inh 0.2, Mtb bLac sens 55 and YopH PTP inh -35.
Screening O=C(CCc1nnc(CCCCc2ccccc2)o1)NCCN1CCOC1=O returned Arbovirus anti 7, RecA intein inh -0.6, Mtb bLac sens -2 and Mtb H37Rv -10%.
`CCCCNC(=O)CCC(=O)Nc1ccc2nc(N3CCOCC3)cc(C)c2c1` gave Arbovirus anti 6, RecA intein inh 1.9, Mtb bLac sens -1, Mtb H37Rv -1% and YopH PTP inh -40.
For COCCCN1C(=O)N(c2ccc(F)cc2)C(=O)C1CC(=O)Nc1ccc(OC)cc1 (stereo not drawn) the results were RecA intein inh -2.2 and Mtb bLac sens 2.
`Cc1c(C(=O)O)oc2ccc(S(=O)(=O)NCc3ccccc3)cc12` gave Arbovirus anti 0, RecA intein inh 5.3, Mtb bLac sens 0, Mtb H37Rv -8% and YopH PTP inh -29.
For CC(C)NC(=O)COC(=O)c1cc(=O)[nH]c2ccccc12 the results were Arbovirus anti 10, RecA intein inh 1.7, Mtb bLac sens -7, Mtb H37Rv 1% and YopH PTP inh -20.
Screening N#Cc1ccc(-c2cn(-c3ccccc3)c3[n+]2CCCS3)cc1 returned Arbovirus anti -1, RecA intein inh -4.5, Mtb bLac sens -2 and Mtb H37Rv 0%.
CNC(=O)CSc1nnc(-c2ccco2)n1-c1cc(C)ccc1C was read as RecA intein inh 1.4 and Mtb bLac sens -12.
`N/C(CCCN1CCCCC1)=N/O` gave Arbovirus anti 8, RecA intein inh -0.9, Mtb bLac sens 2, Mtb H37Rv -2% and YopH PTP inh 7.
Screening CCOC(=O)CC1=C(C(=O)OCC)C(c2cc(OC)c(OC)cc2OC)C(C#N)=C(N)O1 (stereo not drawn) returned Arbovirus anti -1, RecA intein inh -1.4, Mtb bLac sens 1, Mtb H37Rv 0% and YopH PTP inh -35.
Screening COC(=O)CNC(=O)CNC(=O)Nc1ccccc1Cl returned Arbovirus anti 0, RecA intein inh -0.1, Mtb bLac sens -4, Mtb H37Rv 5% and YopH PTP inh -5.
For Cc1ccccc1-c1nc(CS(=O)(=O)CC(=O)N2CCCCC2)c(C)o1 the results were RecA intein inh 0.0 and Mtb bLac sens -2.
Cn1c(=O)n(Cc2ccccc2Cl)c2ccccc21 was read as Arbovirus anti -11, RecA intein inh 4.1, Mtb bLac sens 0 and Mtb H37Rv -1%.
For CSc1ncc(CN2CCCC(C(=O)c3ccccc3SC)C2)cn1 (stereo not drawn) the results were RecA intein inh -0.3, Mtb bLac sens -7 and Mtb H37Rv 6%.
`O=C(O)CCc1ccc(-c2ccccc2)n1CC(=O)Nc1cccc(C(F)(F)F)c1` gave RecA intein inh 1.9 and Mtb bLac sens -2.
Screening CCOc1ccc(S(=O)(=O)N2CCOCC2)cc1NC(=O)CN1C(=O)NC(CC)(c2ccccc2)C1=O (stereo not drawn) returned RecA intein inh 3.8 and Mtb bLac sens 0.
For Cc1cc(S(=O)(=O)N(Cc2ccccc2F)C2CC2)ccc1-n1cnnn1 the results were Arbovirus anti 1, RecA intein inh -2.4, Mtb bLac sens 7 and Mtb H37Rv 9%.
Screening N/C(=N\[N+](=O)[O-])N1CCN(C(=O)c2ccccc2)CC1 returned Arbovirus anti -6, RecA intein inh -4.6, Mtb bLac sens 3 and Mtb H37Rv 2%.
For CC(O/N=C/c1ccc(OC(F)F)cc1)C(=O)Nc1cccc(S(=O)(=O)N2CCOCC2)c1 (stereo not drawn) the results were Arbovirus anti 16, RecA intein inh -6.1, Mtb bLac sens 10, Mtb H37Rv 4% and YopH PTP inh 13.
Clc1ccc(OCC#CCN2CCCC2)cc1 was read as Arbovirus anti 4, RecA intein inh 0.7, Mtb bLac sens 11 and Mtb H37Rv 5%.
Screening CCN(CC)C(=O)CSc1nc2ccc(NC(=O)CSc3nnc(N)s3)cc2s1 returned Arbovirus anti 2, RecA intein inh 1.8, Mtb bLac sens -14 and YopH PTP inh 15.
Nc1c(C(=O)N/N=C/c2ccc(OCc3ccccc3)cc2)cnn1-c1ccccc1 was read as RecA intein inh -0.2, Mtb bLac sens -3 and Mtb H37Rv 1%.
Screening CCn1ncc(/C=C2/SC(=S)NC2=O)c1C returned Arbovirus anti 2, RecA intein inh 5.7, Mtb bLac sens 71, Mtb H37Rv -5% and YopH PTP inh -32.
Screening Cc1ccc(OC(=O)c2sc3ncn(C)c(=O)c3c2C)cc1 returned Arbovirus anti -3, RecA intein inh -0.1, Mtb bLac sens 99 and Mtb H37Rv 1.5µM*.
CNS(=O)(=O)c1cccc(C(=O)OCC(=O)N2CCc3ccccc3C2)c1 was read as Arbovirus anti -3, RecA intein inh 1.0, Mtb bLac sens 1, Mtb H37Rv 2% and YopH PTP inh -20.
COc1cc(S(=O)(=O)Nc2ncccc2C)c(OC)cc1Cl was read as Arbovirus anti -4, RecA intein inh 0.6, Mtb bLac sens 4, Mtb H37Rv -12% and YopH PTP inh -36.
OC[C@H]1OC(O)[C@H](O)[C@@H](O)[C@H]1O (stereo partly drawn) was read as RecA intein inh -2.5 and Mtb bLac sens -3.
`O=C(Nc1ccc(OC(F)(F)F)cc1)c1cnc2n(c1=O)CCS2` gave Arbovirus anti 19, RecA intein inh 1.2, Mtb bLac sens 1, Mtb H37Rv -3% and Arbovirus anti repeat 13.
For COc1ccc(N=C2S/C(=C\c3ccc(C)s3)C(=O)N2CC(C)C)cc1 the results were Arbovirus anti -3, RecA intein inh -0.9, Mtb bLac sens 16, Mtb H37Rv -7% and YopH PTP inh -24.
For O=C(CNC(=O)c1ccco1)NCC(=O)OCc1ccc(Cl)cc1 the results were Arbovirus anti 1, Mtb bLac sens -4, Mtb H37Rv -5% and YopH PTP inh -6.
Screening O=C(O)CCSc1nnnn1-c1ccccc1 returned Arbovirus anti 6, RecA intein inh -2.6, Mtb bLac sens -12, Mtb H37Rv -12% and YopH PTP inh -10.
Screening COCc1nc2ccccc2n1Cc1ccccc1Br returned Arbovirus anti -2, RecA intein inh 2.8, Mtb bLac sens -26, Mtb H37Rv -5% and YopH PTP inh -36.
Screening CSc1nnc(CCNS(=O)(=O)c2ccc(Br)cc2)n1C returned RecA intein inh 1.4 and Mtb bLac sens 0.
Nc1cc(N2CCCCCC2)c2nonc2c1[N+](=O)[O-] was read as RecA intein inh 0.3 and Mtb bLac sens 2.
CCOC(=O)Nc1cc(C)ccc1OC was read as Arbovirus anti 1, RecA intein inh 0.0, Mtb bLac sens -3, Mtb H37Rv -4% and YopH PTP inh 33.
For CC1CCN(C(=S)c2cn(Cc3cccc(F)c3)c3ccccc23)CC1 the results were Arbovirus anti 12, RecA intein inh 4.7, Mtb bLac sens 0, Mtb H37Rv 6% and YopH PTP inh 13.
Screening COc1ccc(OCC(=O)N/N=C(\C)c2cccs2)cc1 returned RecA intein inh -1.2 and Mtb bLac sens -7.
`Cc1nnc(SCCCCSc2nnc(C)c(=O)[nH]2)[nH]c1=O` gave Arbovirus anti 7, RecA intein inh -0.2, Mtb bLac sens 2 and Mtb H37Rv -6%.
CC(C)C(NC(=O)CNC(=O)OC(C)(C)C)C(=O)NCc1ccc(Cl)cc1 (stereo not drawn) was read as Arbovirus anti 0, RecA intein inh 1.7, Mtb bLac sens 1 and Mtb H37Rv -5%.
Screening COc1ccccc1N/C(=N/S(=O)(=O)c1ccc(C)cc1)c1ccc(Cl)cc1 returned Arbovirus anti 1, Mtb bLac sens -4, Mtb H37Rv -6% and YopH PTP inh -42.
For Cc1c(Cl)cccc1NC(=S)N(CCN(C)C)C(C)c1ccco1 (stereo not drawn) the results were RecA intein inh -1.6, Mtb bLac sens -2 and Mtb H37Rv -1%.
`NC(=O)c1cccc(N=Cc2cc(Cl)cc(Cl)c2O)c1` gave Arbovirus anti 5, RecA intein inh 1.1 and Mtb H37Rv 3%.
Screening Cc1ccc(-n2ncc3c2CCCC3NC(=O)c2ocnc2C)cc1C (stereo not drawn) returned RecA intein inh 0.4 and Mtb bLac sens -12.
For CCn1ccnc1C(O)c1cccc2ccccc12 (stereo not drawn) the results were RecA intein inh -0.7 and Mtb bLac sens -6.
CCCCCCC(C)n1[nH]c(=O)c2c(C)cc(=O)[nH]c21 (stereo not drawn) was read as Arbovirus anti 0, RecA intein inh -1.3, Mtb bLac sens -5 and YopH PTP inh -8.
COCC(=O)N=Nc1c(O)[nH]c2ccccc12 was read as Arbovirus anti 12, RecA intein inh -0.6, Mtb bLac sens 0, Mtb H37Rv 5% and YopH PTP inh -20.
For O=C(O)c1ccc(Cn2cnc3sc4c(c3c2=O)CCCC4)cc1 the results were Arbovirus anti 4, RecA intein inh 0.8, Mtb bLac sens -5 and Mtb H37Rv 6%.

Molecules from the list above that contain a COOH group (5):
For O=C(O)c1cc(NCc2c(F)cccc2Cl)ccc1N1CCOCC1 the results were Arbovirus anti 4, RecA intein inh -3.1, Mtb bLac sens -4, Mtb H37Rv 5% and YopH PTP inh -44.
`Cc1c(C(=O)O)oc2ccc(S(=O)(=O)NCc3ccccc3)cc12` gave Arbovirus anti 0, RecA intein inh 5.3, Mtb bLac sens 0, Mtb H37Rv -8% and YopH PTP inh -29.
`O=C(O)CCc1ccc(-c2ccccc2)n1CC(=O)Nc1cccc(C(F)(F)F)c1` gave RecA intein inh 1.9 and Mtb bLac sens -2.
Screening O=C(O)CCSc1nnnn1-c1ccccc1 returned Arbovirus anti 6, RecA intein inh -2.6, Mtb bLac sens -12, Mtb H37Rv -12% and YopH PTP inh -10.
For O=C(O)c1ccc(Cn2cnc3sc4c(c3c2=O)CCCC4)cc1 the results were Arbovirus anti 4, RecA intein inh 0.8, Mtb bLac sens -5 and Mtb H37Rv 6%.

Other results follow.
For N#C/C(=C\c1cccnc1)C(=O)Nc1ccc(O)cc1F the results were RecA intein inh 22 and Mtb bLac sens 2.
Screening Cc1cccc(/C=N/c2sc3c(c2C(=O)OC(C)(C)C)CCN(C)C3)c1O returned Arbovirus anti 6, RecA intein inh -5.8, Mtb bLac sens 1, Mtb H37Rv -1% and YopH PTP inh -24.
Screening O=C(COc1ccccc1C(=O)NCC1CCCO1)Nc1ccc(Cl)cc1Cl (stereo not drawn) returned Arbovirus anti 4, RecA intein inh 1.3, Mtb bLac sens 2 and Mtb H37Rv 5%.
For Cc1ccc(-c2nnc3n2CCCCC3)cc1 the results were Arbovirus anti 3, RecA intein inh -0.6, Mtb bLac sens 0, Mtb H37Rv -6% and YopH PTP inh -8.
`Cc1ccc(S(=O)(=O)N2CCC(C(=O)NNC(=O)c3ccc(F)cc3)CC2)cc1` gave Arbovirus anti 3, RecA intein inh -3.7, Mtb bLac sens 0 and Mtb H37Rv 3%.

Source: PubChem BioAssay (several laboratories)
